# Assay outcomes: PubChem BioAssay, ICCB-Longwood Screening Facility, Harvard Medical School
# Sa growth inh = S. aureus growth inhibition at 42 and 30 °C, primary screen, LtaS inhibitor project, RN4220, two temperatures | OD600, 20 h, 42 °C; active compounds read low | relative growth, % (test concentration not listed) | 170,000 compounds, 0.53% hits;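 active = growth at 42 °C up to 50% and 20 or more points under that at 30 °C, or under 10% at both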;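 also: 300 nL library stock went into each well; scaled to the means of positive and negative controls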
# GIV-Gai inh = inhibitors of GIV peptide binding to Galpha-i3, primary screen, biochemical, fluorescence polarization, FITC-GIV GBA peptide, rat Galphai3; Guanine nucleotide-binding protein G(i) subunit alpha-3 (Rattus norvegicus), P08753; 90 min; active compounds read low; scaled: aluminum fluoride 0%, vehicle 100%; percent of control (FP), % (no concentration beside the values); 210,000 compounds, 0.42% hits;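 active = replicate mean at 85% of control or lower, very high polarization wells dropped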;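 also: wells of about 15 µL received 100 nL stock; the first replicate is given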
# Target sequence (P08753 whole entry, looked up): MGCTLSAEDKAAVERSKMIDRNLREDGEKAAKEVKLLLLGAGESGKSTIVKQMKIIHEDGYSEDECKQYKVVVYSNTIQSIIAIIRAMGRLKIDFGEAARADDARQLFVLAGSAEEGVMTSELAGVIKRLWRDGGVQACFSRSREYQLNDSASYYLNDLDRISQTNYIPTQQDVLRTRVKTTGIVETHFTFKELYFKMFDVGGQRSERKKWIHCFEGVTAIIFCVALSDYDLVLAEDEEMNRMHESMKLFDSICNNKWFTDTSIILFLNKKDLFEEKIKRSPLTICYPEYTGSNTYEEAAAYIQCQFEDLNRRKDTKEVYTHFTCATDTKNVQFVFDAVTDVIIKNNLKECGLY
# HCMV UL50-53 inh = inhibitors of HCMV UL50-UL53 interaction, biochemical, HTRF; HCMV UL50-UL53 nuclear egress complex (human cytomegalovirus); normalized percent inhibition; inhibition, % (test concentration not listed); 190,000 compounds, 0.15% hits; AID 1918969, 2023;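 active = both replicates at 50% or more, plus weaker picks with an unusually low signal ratio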;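 also: stock transfer was 100 nL into about 20 µL; 0% = negative control wells and 100% = wells with untagged competitor protein; inactives centre near -12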
# Sa growth inh second temp = further read-out of Sa growth inh, marked with its call; relative growth, %; measured here: growth at 30 °C;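 optical density after 20 h as mean of two plates; 100% = untreated growth and lower means inhibition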
# * = called active by the depositor; x = not tested or not shown; & = joins results of further samples. An unsorted share of the library; any-hit rate near 0.83%.
# Second line of a record – Sa growth inh, Sa growth inh second temp, GIV-Gai inh, HCMV UL50-53 inh
COC(=O)c1sccc1NC(=O)Cn1ccn2nc(-c3ccc(Cl)cc3)cc2c1=O
  x, x, 102, -25
CC(C)(C)OC(=O)NC1CCN(S(=O)(=O)c2ccc3c(c2)OCCO3)CC1
  86, 82, 95, -11
COc1ccccc1N1C(=O)NC(=O)/C(=C\c2c(OC)ccc3ccccc23)C1=O
  x, x, 112, -20
CC(=O)c1cccc(-n2c(=O)c3c4c(sc3n(Cc3cccc(C)c3)c2=O)CN(C(C)=O)CC4)c1
  102, 87, 100, -13
COc1ccc(S(N)(=O)=O)cc1C(=O)NCC1CCCO1 (stereo unspecified)
  89, 95, x, -7
CC(C)(C)c1cc(-c2ccccc2)n[nH]1
  110, 85, 103, 12
CN(C(=O)c1cnc(N2CCOCC2)c2ccccc12)c1ccccc1F
  86, 88, 108, x
CN(C)S(=O)(=O)c1ccc(S(=O)(=O)N(Cc2ccccc2F)C2CC2)cc1
  121, 94, 102, -20
N#Cc1ccc(Cl)cc1NC(=O)CSc1nnc(-c2c[nH]c3ccccc23)n1CC1CCCO1 (stereo unspecified)
  92, 88, x, -36
Cc1nn(-c2ccccc2)c2sc(C(=O)OCCN3c4cccc5cccc(c45)S3(=O)=O)cc12
  90, 91, x, -1
O=C(Cn1ncc2c(Cl)cccc21)NCc1cccc(F)c1
  96, 91, 96, 10
O=C(Nc1ccccc1)C1C2C=CC(C2)C1C(=O)Nc1ccccc1 (stereo unspecified)
  102, 88, x, -6
COc1cc(CCc2cc(OC)c(C)cc2OC)c(OC)cc1C
  95, 87, 101, -24
O=C1CCc2cc(S(=O)(=O)N3CCCC3C(=O)N3CCN(c4ccc(Cl)cc4)CC3)ccc2N1 (stereo unspecified)
  112, 83, 97, -16
CSc1ncc(C(=O)NCc2cccc(C)c2)c(C)n1
  100, 87, 110, -33
Cc1ccc(-n2c3nc(=O)n(C)c(=O)c-3cc3c(Cl)cccc32)c(C)c1
  106, 87, 104, -90
CC1/C=C/C=C/CC/C=C/C=C/C=C/C=C/C(O[C@@H]2O[C@H](C)[C@@H](O)[C@H](N)[C@@H]2O)CC(O)C(C(=O)O)C(O)CC(=O)CC(O)C(O)CCC(O)CC(O)CC(O)CC(=O)OC(C)C(C)C1O (stereo partly specified)
  94, 88, 104, -36&-24
CCS(=O)(=O)N1CCN(c2cnn(-c3ccccc3)c(=O)c2Cl)CC1
  99, 102, 101, -39
Cc1cccc(-c2nc3nc(C)cc(=O)n3[nH]2)c1
  x, x, 100, -18
CC(=O)N1CCCSc2ccc(S(=O)(=O)NCCc3sccc3C)cc21
  x, x, 107, 16
COc1ccc(C(=O)Nc2nc3c(s2)CC(C)CC3)c(OC)c1 (stereo unspecified)
  113, 107, 109, 15
Cc1ccc(CNC(=O)CN2CCC(n3nnc4cc(C)ccc43)CC2)cc1
  87, 58, 100, 0
COC(=O)c1sccc1OC(=O)c1cc2ccccc2oc1=O
  97, 89, 101, x
CN(C)c1ccc(C2=CC=CC(=C3C=CC(=[N+](C)C)C=C3)O2)cc1
  2.5*, 1.4*, 137, x
CCC(C(=O)Nc1cc(F)ccc1F)n1nc(C)c2c(C)n(-c3ccc(C)cc3)nc2c1=O (stereo unspecified)
  81, 79, 97, x
O=C(CSc1ncn[nH]1)c1ccc(Cl)cc1
  56, 55, 109, -3
CCn1cc(-c2ccc3ccccc3n2)c(=S)c2ccccc21
  84, 77, 106, x
O=c1c2ccc(-c3n[nH]c(=S)o3)cc2nc2n1CCCCC2
  92, 86, x, -24
CCC(Sc1ncnc2sc3c(c12)CCCC3)C(=O)OC(C)C (stereo unspecified)
  105, 83, 108, -18
COc1ccc(C2CC(=O)N(CC(=O)Nc3ccc(C(C)=O)cc3)c3ccccc3S2)cc1OC (stereo unspecified)
  109, 84, 101, -27
Cn1c(SCCSc2cccc(C(F)(F)F)c2)nnc1-c1ccco1
  58, 67, x, -32
O=C(NCCCN1CCN(c2cccc(Cl)c2)CC1)c1cnn(-c2ccc(F)cc2)c1-n1cccc1
  116, 95, 105, x
COc1ccc(CNC(=O)COc2ccc(C#N)cc2)cc1
  110, 100, x, -18
CN1C(=O)c2cccc3c(S(=O)(=O)Nc4cccc(C(=O)O)c4)ccc1c23
  96, 89, 98, -79
CCc1ccc(-n2c(=O)oc3ccc(Cl)cc3c2=O)cc1
  46, 28, 98, x
CC(=O)N1CCCc2cc(S(=O)(=O)NCc3cccc(C)c3)ccc21
  88, 75, 99, x
COC(OC)c1cc(=O)[nH]c(SCC(=O)c2ccc(C)cc2)n1
  97, 103, 107, 1
CCOC(=O)Cc1ccc(NC(=O)N2CCc3c(sc4c3CCCC4)C2c2ccc(F)cc2)cc1 (stereo unspecified)
  86, 84, 100, x
Cn1cc(C(=O)N2CCN(c3ccccc3)CC2)c(=O)c2cc(S(=O)(=O)N3CCCC3)ccc21
  90, 108, 99, 10
O=S(=O)(c1ccc2nc(Nc3ccc(Br)cc3F)ccc2c1)N1CCCCC1
  80, 94, 106, x

# Single records, as listed above. Screens in order: Sa growth inh, Sa growth inh second temp, GIV-Gai inh, HCMV UL50-53 inh
# O=C(NCCCN1CCN(c2cccc(Cl)c2)CC1)c1cnn(-c2ccc(F)cc2)c1-n1cccc1 is listed as 116, 95, 105, x
# CC(C)(C)c1cc(-c2ccccc2)n[nH]1 is listed as 110, 85, 103, 12

# Remaining list, next part
# Second line of a record – Sa growth inh, Sa growth inh second temp, GIV-Gai inh, HCMV UL50-53 inh
CCN(CC)C(=O)Cn1c(SCC(=O)Nc2ccc(C)c(C)c2)nc2ccccc21
  116, 102, 111, x
CN1CCN(CC(=O)N2N=C(c3c(-c4ccccc4)c4cc(Cl)ccc4[nH]c3=O)CC2c2ccccc2)CC1 (stereo unspecified)
  x, x, 109, -30
Cc1nn(-c2ccc(Cl)cc2)c(N)c1C1(O)C(=O)N(C)c2ccccc21 (stereo unspecified)
  94, 89, x, -28
O=c1c2sc3ccccc3c2n(Cc2ccccc2Cl)c(=O)n1Cc1ccccc1
  103, 94, 103, 2
Cc1nc(C)c(-c2nnc(-c3ccc(Cl)cc3)o2)s1
  116, 97, 100, -1
COc1cccc(NC(=O)Cn2c(=O)n(Cc3nc(-c4ccccc4)no3)c(=O)c3ccccc32)c1
  95, 87, 113, x
CCOC(=O)C(C)Sc1nnc(-c2ccc(F)cc2)o1 (stereo unspecified)
  90, 88, 107, -14
COc1ccc(NC(=O)c2c(C)oc3ccc(O)c(CN4CCCC(C)C4)c23)cc1 (stereo unspecified)
  99, 81, 100, -18
COc1cc(OC)c(NC(=O)c2c(C)nn(-c3ccc(C)cc3)c2-n2cccc2)cc1Cl
  91, 93, 102, x
Cc1ccccc1Nc1nc(N)nc(Cn2cc(C(F)(F)F)ccc2=O)n1
  97, 99, x, -15
COc1cccc(N2C(=O)c3cccnc3C2O)c1 (stereo unspecified)
  110, 88, 106, -18
Cc1cc(C)cc(Oc2c(C(F)(F)F)oc3c(CN4CCCC(C)C4)c(O)ccc3c2=O)c1 (stereo unspecified)
  89, 85, 99, -13
COc1ccc2cc3c(nc2c1)N(S(=O)(=O)c1ccc(OC)c(C)c1)CC3
  x, x, 103, -1
C(=NN1CCN(C2c3ccccc3-c3ccccc32)CC1)c1cccs1
  86, 91, x, -19
Cc1ccc(S(=O)(=O)NC(=O)c2ccc(Cl)nc2Cl)cc1
  99, 91, x, -17
Cc1cc(C)n(-c2nc(C)c(C(=O)N3CCN(c4ccc(F)cc4)CC3)s2)n1
  x, x, 102, -9
CCOc1ccc(S(=O)(=O)N2Cc3ccccc3CC2C(=O)Nc2ccc(NC(C)=O)cc2)cc1 (stereo unspecified)
  104, 86, 107, -18
Cc1cc2occ(CC(=O)Nc3ccc(S(=O)(=O)C(F)F)cc3)c2cc1C
  101, 85, x, -9
COc1ccc(-c2nc3ccccc3o2)cc1NC(=S)NC(=O)CC(C)C
  95, 85, 106, -15
Cc1[nH]c(C(=O)Nc2cccc(F)c2)c(C)c1S(=O)(=O)N1CCCC1
  x, x, 107, -3
CCOC(=O)c1c(C)oc2nc(C)nc(NCCc3ccc(OCC)cc3)c12
  98, 94, 107, x
O=c1oc2ccc(Cl)cc2cc1-c1nnc(-c2cccc(Br)c2)o1
  x, x, 101, -11
CCOc1ccc(-c2c(C#N)c(N)nc3sc(C(=O)OC)c(N)c23)cc1
  107, 88, 89, -32
O=C(CN1CCN(Cc2ccc(F)cc2Cl)C1=O)NCc1ccc(Cl)cc1
  94, 85, 104, x
O=C(O)C1C(c2ccccc2)C(C(=O)N2CCCCC2)C1c1ccccc1 (stereo unspecified)
  100, 91, 98, 0
Cc1cc(C)c2nc(NC(=O)Cc3ccccc3)sc2c1
  117, 89, x, -32
CCOC(=O)c1cc2ccsc2n1CC(=O)Nc1cc(Cl)c(OC)cc1OC
  x, x, 103, -22
CSc1cccc(NC(=O)C2COc3ccccc3O2)c1 (stereo unspecified)
  109, 86, 104, x
CC(=O)N1CCc2cc(S(=O)(=O)CCC(=O)N3CCCc4ccccc43)ccc21
  103, 90, 95, 0
CCc1nnc(SCc2nc(-c3ccccc3F)oc2C)c2cc3sccc3n12
  104, 92, 106, x
Cc1cc(C)nc(NS(=O)(=O)c2ccc(NC(=O)CSc3nc4ccccc4s3)cc2)n1
  x, x, 102, 0
O=C(O)c1nccnc1C(=O)OCCCc1ccncc1
  97, 98, 102, -9
COc1cc(=O)n(-c2ccc(F)cc2)nc1C(=O)Nc1ccc(Br)cc1F
  x, x, 103, -8
OCc1ccc(N2CCCC2)cc1F
  105, 75, 100, -18
O=C(NC1CCCCC1)N1CCC(N2CCN(Cc3ccccc3)C2=O)CC1
  x, x, 101, 5
CCn1c(=S)[nH]c2ccccc21
  89, 84, 86, x
COc1ccc(C2CC(c3cccs3)=NN2C(=O)Cn2nnc(-c3cccnc3)n2)cc1OC (stereo unspecified)
  107, 94, x, -6
CCc1ccc(C2C3=C(CC(C)(C)CC3=O)OC3=C2C(=O)CC(C)(C)C3)cc1
  x, x, 109, -12
CC1(CCc2ccccc2)NC(=O)N(CN2CCN(c3ccccc3F)CC2)C1=O (stereo unspecified)
  88, 95, x, -25
CN1C(=O)c2cc(C(=O)N3CCOCC3)nn2CC1(C)C(=O)NC1CCCCC1 (stereo unspecified)
  x, x, 101, 10
O=C(CSc1ncc(-c2ccc(Cl)cc2)[nH]1)Nc1ccccc1F
  120, 87, 101, -3
O=C(COc1ccccc1C(=O)O)Nc1ccccc1F
  110, 101, x, 12
Cc1nc(NCc2ccccc2)sc1C(=O)N(C)C
  95, 97, x, -11
CC(C)N(C(=O)c1ccc(-c2nnc(-c3ccccc3)o2)cc1)C(C)C
  105, 89, x, 7
COc1cc(OC)cc(C(=O)Nc2ccc3oc(-c4ccccc4Br)nc3c2)c1
  x, x, 101, -10
CCC(=O)N1c2ccc(S(=O)(=O)N3CCCCC3)cc2CC1C(=O)NCCCN1CCOCC1 (stereo unspecified)
  x, x, 106, 3
Cc1ccc(S(=O)(=O)n2nc(C)c(Sc3ncccn3)c2C)cc1
  96, 89, 101, -1
CCC(CO)NC(=O)/C=C/c1ccc(OC)c(OC)c1 (stereo unspecified)
  106, 87, x, -59
CCc1ccc(NC(=O)NCCN2CCc3ccccc3C2)cc1
  109, 91, 102, x
Cc1ccc2c(c1)nc(SCC(O)c1ccc(Br)cc1)n2C (stereo unspecified)
  100, 90, 105, -24

# (listing goes on)
# Second line of a record – Sa growth inh, Sa growth inh second temp, GIV-Gai inh, HCMV UL50-53 inh
CCc1cccc(NC(=S)N(CCOC)C(C)c2ccco2)c1 (stereo unspecified)
  78, 77, 99, -15
COc1ccc(C(=O)CN2C(=O)COc3ccccc32)cc1
  98, 85, x, -7
COC(=O)COc1ccc2cccc(-n3cnnn3)c2c1
  92, 90, 105, -27
Cc1ccn2c(=O)cc(COc3ccc4c(c3)OCO4)nc2c1
  86, 95, x, -29
CCc1ccccc1NS(=O)(=O)c1ccc(OC)c2ncccc12
  89, 84, 102, x
Cc1nnnn1CC(=O)Nc1ccc(F)cc1
  99, 88, x, 1
CC(Sc1nncn1-c1ccccc1)C(=O)N1CCc2ccccc21 (stereo unspecified)
  84, 94, x, -24
CCCn1nnc(NC(=O)/C=C/c2ccccc2)n1
  95, 95, x, -29
CCC(Oc1ccccc1)C(=O)Nc1cccc(OCc2cc(=O)n3cccc(C)c3n2)c1 (stereo unspecified)
  146, 79, 101, x
Cc1cc(Cl)ccc1OC1C(=O)N(c2cccc(C(F)(F)F)c2)C1c1ccc2c(c1)OCO2 (stereo unspecified)
  86, 58, x, 2

# An excerpt from above in order of formula weight, lowest first.
# Second line of a record – Sa growth inh, Sa growth inh second temp, GIV-Gai inh, HCMV UL50-53 inh
Cc1nnnn1CC(=O)Nc1ccc(F)cc1
  99, 88, x, 1
COC(=O)COc1ccc2cccc(-n3cnnn3)c2c1
  92, 90, 105, -27
COc1ccc(C(=O)CN2C(=O)COc3ccccc32)cc1
  98, 85, x, -7
CCc1ccccc1NS(=O)(=O)c1ccc(OC)c2ncccc12
  89, 84, 102, x
CC(Sc1nncn1-c1ccccc1)C(=O)N1CCc2ccccc21 (stereo unspecified)
  84, 94, x, -24
CCC(Oc1ccccc1)C(=O)Nc1cccc(OCc2cc(=O)n3cccc(C)c3n2)c1 (stereo unspecified)
  146, 79, 101, x
